# GALR2 agonist: activates the human galanin receptor 2; 140,000 tested, 0.48% active; GALR2-expressing cells, agonist activation read-out; AID 803; activation, %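 (tested at 5 µM)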;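 active means above mean plus 3 SD of all compounds, about 5% in these data, not always enough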;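 further: 0% = vehicle buffer wells and 100% = reference agonist at full effect; tested in CHO reporter cells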
# Target sequence (O43603 whole entry, looked up): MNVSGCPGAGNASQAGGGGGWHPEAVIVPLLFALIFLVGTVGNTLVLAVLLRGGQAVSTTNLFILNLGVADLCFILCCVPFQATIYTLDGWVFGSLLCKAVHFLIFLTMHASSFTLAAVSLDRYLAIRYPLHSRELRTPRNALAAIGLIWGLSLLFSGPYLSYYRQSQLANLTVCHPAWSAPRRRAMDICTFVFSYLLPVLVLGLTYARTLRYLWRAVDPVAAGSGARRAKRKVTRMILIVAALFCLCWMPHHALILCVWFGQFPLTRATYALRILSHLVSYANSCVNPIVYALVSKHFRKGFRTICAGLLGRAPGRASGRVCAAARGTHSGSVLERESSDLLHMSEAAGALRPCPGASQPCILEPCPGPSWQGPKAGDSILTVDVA
# HSV augment: increases HSV replication in cells | 220,000 tested, 0.005% active | AID 1956 | maximum fold increase | HSV replication augmentation in cells, fold increase;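 active means peak rise of 1.5-fold or more in the series; inconclusive means self-fluorescent or not available for retest; tested in PC3 cells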;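 further: first round at 10 µM; read as green reporter fluorescence; hits show the peak of a series up to 25 µM; 1 = signal of infected wells without compound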
# Insulin prom inh: TRM-6 insulin promoter activity inhibition; 130,000 tested, 0.9% active; TRM-6 cells (human fetal islet line), insulin promoter-eGFP reporter, imaging; reporter expression induced with tamoxifen; AID 1273; inhibition, % at 2 µM;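 active means inhibition above the mean plus 3 SD, with well images judged a real hit on visual review, cut at about 60% in these data, passing the limit was not always enough; inconclusive means inhibition over the cutoff but images rejected on review; inactive means inhibition not above the cutoff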
# PKD1 kinase inh: PKD1 (human) kinase inhibition | Q15139 | PKD1 kinase fluorescence polarization assay | inhibition, %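 (about 10 µM by stock and volumes)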 | 200,000 tested, 0.056% active | AID 797;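 active means inhibition of 50% or more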;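 further: controls were vehicle for no effect and a reference inhibitor for full effect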
# RGS16-Gao HTS: regulators of human RGS16-Galphao interaction | O15492+P09471 | bead-based flow cytometry RGS16-Galphao binding, fluorescence; actives lie on both sides | binding response (% of control), % at 10 µM | 220,000 tested, 0.38% active | AID 1441;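 active means below 25% or above 175%, edge rows of some plates excepted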;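 further: Galphao activated by GDP with aluminum fluoride before binding; 100% = wells without compound and 0% = beads without RGS; some results beyond the cut were filed as inactive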
# Target sequence (O15492 whole entry, looked up): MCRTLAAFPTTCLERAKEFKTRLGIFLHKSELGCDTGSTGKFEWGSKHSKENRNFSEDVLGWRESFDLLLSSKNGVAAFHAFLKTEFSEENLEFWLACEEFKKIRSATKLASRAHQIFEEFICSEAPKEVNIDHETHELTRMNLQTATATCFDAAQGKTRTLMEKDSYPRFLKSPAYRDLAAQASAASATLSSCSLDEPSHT
# Target sequence (P09471 whole entry, looked up): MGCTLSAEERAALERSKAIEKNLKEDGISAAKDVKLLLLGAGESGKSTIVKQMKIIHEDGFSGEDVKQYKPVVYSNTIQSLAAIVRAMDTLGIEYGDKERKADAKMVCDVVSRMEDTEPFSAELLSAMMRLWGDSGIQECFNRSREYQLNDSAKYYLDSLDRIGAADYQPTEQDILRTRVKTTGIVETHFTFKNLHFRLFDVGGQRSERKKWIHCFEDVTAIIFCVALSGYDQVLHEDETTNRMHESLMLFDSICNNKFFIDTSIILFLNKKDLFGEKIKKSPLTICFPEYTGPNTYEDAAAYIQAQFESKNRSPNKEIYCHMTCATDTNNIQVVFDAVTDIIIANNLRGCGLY
# Insulin prom inh cell count: recorded beside Insulin prom inh, whose call it bears; normalized cell count, %; measured here: cell count, toxicity; reference of the scale not given here;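 cells exposed to compound for 48 h; stained nuclei by imaging scaled within each plate; lower means fewer cells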
# HSV augment primary fold: further read-out of HSV augment, marked with its call; fold increase; compound at 10 µM; measured here: primary screen fold increase 10 uM; tested in PC3 cells;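 GFP signal in the first replicate; 1 = infected wells without compound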
# * = called active by the depositor; i = inactive; ? = inconclusive; / = not tested or not shown.
SMILES,GALR2 agonist,HSV augment,HSV augment primary fold,Insulin prom inh,Insulin prom inh cell count,PKD1 kinase inh,RGS16-Gao HTS
O=C(c1cccc(Cl)c1)N1CCN(c2ncnc3c2cnn3-c2ccccc2)CC1,/,i,1.1,0,89,-1,103
Cn1c(Cn2c(=O)sc3ccccc32)nnc1SCC(=O)N1CCCCCC1,-1.8,i,0.96,/,/,2,100
COC(=O)c1cc(NC(=O)c2cccc(Cl)c2)c(=O)oc1/C=C/Nc1cc(C)cc(C)c1,/,?,/,i,85,-7,108
Cc1ccc(C(=O)O/N=C/c2c(N3CCOCC3)n(C)c3ccccc23)cc1,-1.5,i,0.45,10,129,-11,99
Cc1csc(NC(=O)c2ccc(OCC3CCCO3)cc2)n1 (stereo unspecified),/,i,1.1,/,/,-11,102
COc1ccc(C2=CC(=O)CC(c3ccccc3)C2)cc1 (stereo unspecified),/,i,0.96,/,/,1,99
Cc1ccc(-c2nnn(CC(=O)N(Cc3ccccc3)C(C(=O)NC(C)(C)C)c3ccncc3)n2)o1 (stereo unspecified),-0.9,i,0.88,-43,135,12,105
Cc1ccc2c(c1)NC(=O)c1cccnc1N2,-3.1,/,/,/,/,-9,107
CS(=O)(=O)C1=NSC2=NC(=O)/C(=C\c3ccc(-c4ccccc4)o3)C(=N)N21,-0.4,i,1.1,-22,187,-12,110
O=C(N/N=C/c1ccc(Br)s1)c1ccncc1,/,i,0.99,67,112,-4,109
O=C(NCC(=O)N(c1cccc(F)c1)C(C(=O)NCC1CCCO1)c1ccccc1)c1ccco1 (stereo unspecified),-1.9,i,1.1,/,/,-11,101
O=C(CSCc1ccc([N+](=O)[O-])cc1)N/N=C/c1ccncc1,/,i,0.99,50,110,4,99
CC[N+](CC)(CC#Cc1ccccc1)CC#Cc1ccccc1,/,i,0.92,/,/,/,102
CN(Cc1ccccc1)C(=O)CSc1nc2c(c(C(F)(F)F)n1)CCc1ccccc1-2,-3.4,i,0.91,38,163,0,/
CCOc1cc(CNC)ccc1OCC(=O)NC(C)(C)C,/,i,0.91,/,/,-1,100
Cc1csc(SCc2ccccc2C(=O)O)n1,-1.4,i,1,/,/,-4,102
Clc1ccc(CSc2nnc(-c3cccnc3)n2Cc2ccco2)c(Cl)c1,-0.6,i,1.2,8,83,11,96
C=CCNC(=S)Nc1ccc(Cl)c(S(=O)(=O)N2CCOCC2)c1,/,i,0.97,/,/,-2,95
O=C1c2ccccc2C(=O)c2c1oc(C(F)(F)F)c2C(=O)c1ccccc1,-3.5,i,0.63,0,71,-11,101
CC(C)NS(=O)(=O)c1ccc(OCC(=O)N(C)Cc2ccccc2)cc1,0.4,i,0.96,32,66,-6,102

# 6 entries picked at random from the list so far:
SMILES,GALR2 agonist,HSV augment,HSV augment primary fold,Insulin prom inh,Insulin prom inh cell count,PKD1 kinase inh,RGS16-Gao HTS
CC[N+](CC)(CC#Cc1ccccc1)CC#Cc1ccccc1,/,i,0.92,/,/,/,102
Clc1ccc(CSc2nnc(-c3cccnc3)n2Cc2ccco2)c(Cl)c1,-0.6,i,1.2,8,83,11,96
Cc1csc(NC(=O)c2ccc(OCC3CCCO3)cc2)n1 (stereo unspecified),/,i,1.1,/,/,-11,102
O=C1c2ccccc2C(=O)c2c1oc(C(F)(F)F)c2C(=O)c1ccccc1,-3.5,i,0.63,0,71,-11,101
Cn1c(Cn2c(=O)sc3ccccc32)nnc1SCC(=O)N1CCCCCC1,-1.8,i,0.96,/,/,2,100
Cc1ccc(-c2nnn(CC(=O)N(Cc3ccccc3)C(C(=O)NC(C)(C)C)c3ccncc3)n2)o1 (stereo unspecified),-0.9,i,0.88,-43,135,12,105

# Next results follow.
SMILES,GALR2 agonist,HSV augment,HSV augment primary fold,Insulin prom inh,Insulin prom inh cell count,PKD1 kinase inh,RGS16-Gao HTS
C=C(CC1([C@@H](NP(=O)(c2ccccc2)c2ccccc2)[C@H]2C[C@@H]2CCCC)CC1)c1ccccc1,-1.3,i,0.84,-19,70,-5,112
O=C(NC(=S)Nc1ccc(Cl)cn1)c1cccs1,-0.8,i,0.91,10,72,-2,99
COc1cc(C=O)c(Br)cc1OC1CCCC1,-0.2,i,0.9,-31,124,-2,109
O=C1CCSc2ccc(Cl)cc2N1Cc1ccccc1,-2.8,i,1.1,11,110,1,100
CCOP(=O)(OCC)C(Nc1cccc(C(F)(F)F)c1)c1ccc(C)cc1 (stereo unspecified),-0.5,i,1.1,12,143,-3,100
O=C(c1cnc2sccn2c1=O)N1CCN(c2ccccc2Cl)CC1,/,i,0.71,/,/,/,97
O=c1cc(C(F)(F)F)[nH]c2c(OC(F)(F)F)cccc12,/,i,0.94,/,/,/,101
O=C(NNC(=S)NCc1ccccc1)c1ccc(OC(F)F)cc1,-1.8,i,1,16,104,-11,87
CCOC(=O)c1sc(=S)n(-c2ccccc2OC)c1N,-0.9,i,0.87,/,/,-2,97
COc1cc(N(C)C)c([N+](=O)[O-])cc1C(=O)N1CCN(Cc2ccccc2)CC1,/,i,1.1,/,/,8,99
O=C(O)C1CC(=O)N(c2ccc(OCc3c(F)cccc3Cl)cc2)C1 (stereo unspecified),-1.9,i,0.94,0,86,2,89
Cc1nc2ccccn2c1/C(O)=C1\C(=O)C(=O)N(CCCn2ccnc2)C1c1ccncc1 (stereo unspecified),-1.8,i,1.1,18,80,-6,98
COC(=O)c1ccccc1NC(=O)Nc1ncccc1C,/,i,1.1,58,84,-2,100
Cc1nnc(NC(=O)c2ccccc2Br)s1,-0.4,i,0.91,10,72,2,106
COC(=O)c1cnc(Oc2ccc(NC(=O)NC(=O)c3c(F)cccc3F)cc2)cc1C(F)(F)F,/,i,0.93,/,/,/,100
COC(=O)c1cc(NC(=O)c2cc(-c3ccc(OC)cc3)oc2C(F)(F)F)ccc1N1CCOCC1,/,i,0.94,/,/,/,92
Cc1c(NC(=O)C(C)OC(=O)c2cccnc2)c(=O)n(-c2ccccc2)n1C (stereo unspecified),-1.6,i,0.89,13,88,-15,104
Cc1ccc(OCCN2C(=O)NC3(CCc4ccccc4C3)C2=O)cc1 (stereo unspecified),0.6,i,1,-6,91,2,103
C#CCNc1cc(-c2ccccc2)nc2ncnn12,/,i,0.95,36,122,-4,102
COc1ccccc1/C=C/C(=O)NCC(=O)N1CCC(N(C)C2CCCC2)CC1,/,i,0.97,50,75,-8,104

# Results in Insulin prom inh cell count, RGS16-Gao HTS and Insulin prom inh, for three of the compounds above:
Structure	Insulin prom inh cell count	RGS16-Gao HTS	Insulin prom inh
Cc1nnc(NC(=O)c2ccccc2Br)s1	72	106	10
Cc1c(NC(=O)C(C)OC(=O)c2cccnc2)c(=O)n(-c2ccccc2)n1C (stereo unspecified)	88	104	13
O=C(O)C1CC(=O)N(c2ccc(OCc3c(F)cccc3Cl)cc2)C1 (stereo unspecified)	86	89	0

# Next part:
SMILES,GALR2 agonist,HSV augment,HSV augment primary fold,Insulin prom inh,Insulin prom inh cell count,PKD1 kinase inh,RGS16-Gao HTS
COC(=O)c1ccc(C(=O)OC)c(NC(=S)N2CC(C)CC(C)C2)c1 (stereo unspecified),-0.1,i,1,-66,100,-6,110
CCN(CC)CCN(C(=O)c1cccc([N+](=O)[O-])c1)c1nc2ccc(OC)cc2s1,/,i,0.86,22,136,-9,100
CCc1nnc(NC(=O)CN2CCN(c3ccccc3F)CC2)s1,/,i,0.98,47,94,-3,114
NNC(=O)c1ccc(COc2ccc([N+](=O)[O-])cc2)o1,/,i,0.92,/,/,/,100
Cc1cccc(NC(=O)N2CCC(NC(=O)c3ccco3)CC2)c1,/,i,1.1,-17,135,8,102
Nc1ccc(N2CCN(C(=O)c3cccs3)CC2)cc1,-0.9,?,/,41,96,-3,85
CCCCOc1ccc(CSC(CC(=O)O)C(=O)O)cc1 (stereo unspecified),-1.7,i,0.92,26,227,-11,99
CCOC(=O)c1[nH]c(C)c(/C(O)=C2\C(=O)C(=O)N(CCCn3ccnc3)C2c2ccncc2)c1C (stereo unspecified),-0.7,i,0.55,31,127,5,103
COC(=O)C1=C(C(=O)OC)[C@@H]2N(C)c3ccccc3[C@@]23C[C@@H](C(=O)OC)N(C(=O)c2ccc(Br)cc2)C3=N1,/,i,0.82,/,/,/,96
CC(=O)c1cc(CC(=O)N2CCc3c([nH]c4ccccc34)C2c2ccccn2)cs1 (stereo unspecified),/,i,0.89,0,108,-4,97
COc1ccc(-c2nn(C)c(=O)c3ccccc23)cc1CNC(=O)NC1CCCCC1,/,i,1.1,0,78,-5,99
COC(=O)c1cccc(N2C(=O)C3CC=CCC3C2=O)c1 (stereo unspecified),-0.5,i,1.1,12,48,2,110
COc1ccc(C2=C(Nc3ccc(C)cc3)c3ccccc3C2=O)cc1,-0.8,i,0.78,22,96,-3,58
CCOC(=O)N1CCC(N2CCCC(C(=O)c3ccccc3OC)C2)CC1 (stereo unspecified),/,i,0.93,/,/,-6,104
CCCCOc1ccc(S(=O)(=O)N2CCCCCC2)cc1,-0.9,i,0.97,-150,76,-5,107
COc1cccc(C(=O)NC2CCN(CC(=O)Nc3cccc(C)c3C)CC2)c1,/,i,0.92,/,/,0,106
O=C(Cc1ccccc1)NNC1=NS(=O)(=O)c2ccccc21,/,i,0.94,/,/,0,101
COc1cccc(NC(=O)c2cc(Cl)nnc2Cl)c1,/,i,0.93,47,140,-4,101
COCCN(CCOC)Cc1c(O)ccc2c3c(c(=O)oc12)CCC3,0.7,i,0.8,/,/,1,97
COc1cc(/C=N/NC(=O)CSCc2ccc([N+](=O)[O-])cc2)cc(OC)c1OC,-0.5,i,0.81,6,89,-8,100
CCNC(=S)Nn1cnc2ccccc21,/,i,0.96,/,/,/,108
CCOC(=O)C1=C(CC)OC(N)=C(C#N)C1c1ccsc1 (stereo unspecified),-2.4,i,0.96,-7,94,-20,102
CC(C)NC(=O)c1nc2ccccc2s1,-0.9,i,1,-15,64,-5,101
Cc1ccc(NC2=C(Cl)C(=O)OC2OC(=O)c2ccc(C)cc2)cc1 (stereo unspecified),/,i,1,/,/,-5,103
CCCn1c(-c2nonc2N)nc2ccccc21,-3.5,i,0.96,42,112,7,100
Cc1c(C(=O)NCCC2=CCCCC2)cccc1[N+](=O)[O-],-1.6,i,0.97,/,/,8,102
CCN(CC)C(=S)SCC(=O)Nc1nc(-c2ccccc2)c(-c2ccccc2)o1,-0.7,i,1,20,106,5,103
Cc1cccc(N2C(=O)CCC2=O)c1,-0.6,i,1.1,36,100,-4,106
CCOc1ccc(OCCCN(C)C)cc1,-2.0,i,1,-7,81,1,101
O=C1c2ccccc2C(Nc2ccc3c(c2)OCCO3)N1c1ccccn1 (stereo unspecified),-1.5,i,0.96,/,/,11,54
CCCCOc1ccc(CSC(=N)N)cc1[N+](=O)[O-],-1.9,i,0.83,3,198,-2,108
COc1ccc(S(=O)(=O)NC(C)C)cc1C(=O)N1CCOCC1,/,i,0.96,/,/,-4,97

# Screens deposited in PubChem by several laboratories.
